AF4-AF9 inh: inhibitors of AF4 peptide binding to AF9, primary screen, biochemical, AlphaScreen, biotin-AF4 peptide, FLAG-AF9, single point; inhibition, % at 10 µM; 350,000 tested, 0.47% active;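 active = every replicate reaching a set inhibition limit, whatever the replicate mean, cut at about 25% in these data; inconclusive = mean inhibition reaches that limit but some replicates miss it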;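 also: 0% = plate neutral control median and 100% = total signal loss; the record names both 10 and 1 µM as test concentration; the first replicate is given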
Target sequence (P42568 whole entry, looked up): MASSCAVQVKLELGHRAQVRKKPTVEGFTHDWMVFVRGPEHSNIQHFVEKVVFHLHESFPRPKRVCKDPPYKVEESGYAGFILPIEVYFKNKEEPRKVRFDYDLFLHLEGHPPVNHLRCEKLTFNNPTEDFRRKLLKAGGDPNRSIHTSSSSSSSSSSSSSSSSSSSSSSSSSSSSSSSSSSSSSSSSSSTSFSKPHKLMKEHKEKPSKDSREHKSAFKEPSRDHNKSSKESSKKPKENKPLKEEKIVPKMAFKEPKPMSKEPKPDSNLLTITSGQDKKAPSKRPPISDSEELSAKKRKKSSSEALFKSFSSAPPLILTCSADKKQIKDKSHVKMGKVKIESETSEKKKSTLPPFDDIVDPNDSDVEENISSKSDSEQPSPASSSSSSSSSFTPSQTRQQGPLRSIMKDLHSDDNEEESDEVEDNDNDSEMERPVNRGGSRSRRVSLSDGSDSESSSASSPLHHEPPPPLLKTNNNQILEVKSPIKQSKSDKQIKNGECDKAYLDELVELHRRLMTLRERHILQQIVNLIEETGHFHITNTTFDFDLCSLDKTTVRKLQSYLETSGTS
Beta apoptosis: inhibitors of cytokine-induced beta cell apoptosis, primary screen, luminescence. 300,000 tested, 0.8% active. INS-1E cytokine-induced death, ATP luminescence, 48 h; percent of positive-control rescue, neutral wells zero. protection from apoptosis, % (concentration not given with the values);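 active = all replicates at 75% or more, or half of them and the mean; inconclusive = half reach 75% but not the mean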;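 also: 0% = cytokine-treated negative control wells and 100% = positive control rescue; higher means more ATP so stronger rescue from cytokine killing; wells of about 40 µL received 100 nL stock; the first replicate is given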
rRNA inh HTS: reduced GFP signal of wild-type E. coli, primary screen, bacterial rRNA inhibitor project, GFP/RFP fluorescence, OD600, single point; E. coli WT GFP vs humanized-ribosome RFP mutants, 24 h; active compounds read low; DMSO median 0, no signal -100; 350,000 tested, 1.6% active; AID 720706, 2013; GFP signal change (wild-type ribosome), % (test concentration not listed);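 active = significant combined selectivity score with lowered wild-type GFP, culture density cut under 30%, mutant RFP and density less affected; inactive = any of these conditions unmet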; also: one replicate is shown; some compounds called inactive have numbers as strong as hits
T cruzi repl: inhibitors of intracellular T. cruzi growth, primary screen, luminescence, NIH3T3 host cells | T. cruzi beta-gal in NIH3T3, 90 h | inhibition, % (test concentration not listed) | 300,000 tested, 1.4% active;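 active = mean inhibition across valid replicates above about 55%, limit read from the data; inconclusive = mean below that limit but half or more replicates reach it; inactive = mean below it, under half of replicates reach it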;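 also: signal also drops with host cell toxicity which is not excluded here; 0% = plate median of DMSO wells and 100% = zero luminescence signal; higher percent means less beta-gal luminescence so fewer parasites; stock transfer was 50 nL into about 50 µL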
Calb FLC: C. albicans growth inhibition with fluconazole, primary screen, CaCi-2 strain, Alamar Blue fluorescence. C. albicans CaCi-2 (fluconazole-resistant clinical isolate) + fluconazole, 48 h. growth inhibition, % (concentration not given with the values). 300,000 tested, 0.57% active;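 active = most replicates above 75%; inconclusive = exactly half above 75%; inactive = most below 75%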;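 also: all wells also contain fluconazole at 8 µg/ml as a sub-toxic cotreatment; 0% = median of DMSO wells and 100% = median of geldanamycin control wells; wells of about 8 µL received 7.5 nL stock; the first replicate is given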
Vif TR-FRET: inhibitors of Vif binding to APOBEC3G peptide, primary screen, biochemical, TR-FRET, GST-Vif 1-94, biotin-A3G peptide, dose response retest (AID 1117319); TR-FRET GST-Vif / biotin-A3G peptide binding; higher % means a stronger effect; test concentration not given here; strong numbers were not always called active; one-dose inhibition, %; IC50 in µM for titrated hits; 260,000 tested, 0.57% active;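 active = above the screen mean plus three standard deviations and confirmed in dose response; inconclusive = results disagree or hit not tested in dose response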;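 also: Vif residues 1-94 fused to GST binding biotinylated APOBEC3G peptide 110-148; 0% = full assay without inhibitor and 100% = GST in place of GST-Vif; retest series ran down from 100 µM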
RanGTP-Imp inh: inhibitors of RanGTP-importin-beta interaction, primary screen, biochemical, FRET, CFP-Ran, YFP-importin-beta, homogeneous. Ran GTPase (GTP-bound) - importin-beta complex. inhibition, % (concentration not given with the values). cell-free CFP-Ran/YFP-importin-beta FRET ratio. 300,000 tested, 1.1% active;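 active = most replicates above 15%; inconclusive = exactly half above 15%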;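 also: 0% = DMSO wells and 100% = Ran loaded with GDP instead of GTP; wells of about 40 µL received 100 nL stock; the first replicate is given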
Bfl-1 A1 inh: caspase 3/7 activation in MEF A1-2A-BIM cells, primary screen, A1 inhibitor project, cell-based, luminescence, HTS; Caspase-Glo 3/7 luminescence, 3 h; percent of clofoctol response, vehicle zero; AID 2462, 2010; caspase activation, % (test concentration not listed); 330,000 tested, 0.066% active;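 active = over half of replicate activation scores above 10%, or exactly half above 10 with the replicate mean above 10; inconclusive = replicate mean below 10 yet half the replicates above 10; inactive = over half of replicates below 10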;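 also: wells of about 30 µL received 50 nL stock; many hits fall short of the cut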
rRNA inh HTS OD600: further read-out of rRNA inh HTS, marked with its call; OD600 change, %; measured here: OD600 growth;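 optical density of the mix in the first replicate; 0 = DMSO median and -100 = no signal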
rRNA inh HTS RFP: second read-out of rRNA inh HTS, no call of its own (marks repeat the call); RFP signal change, %; measured here: RFP humanized mutant strains;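 first replicate; 0 = DMSO median and -100 = no signal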
Active calls of the source: *; ? = inconclusive; . = no result given.

SMILES	AF4-AF9 inh	Beta apoptosis	rRNA inh HTS	rRNA inh HTS OD600	rRNA inh HTS RFP	T cruzi repl	Calb FLC	Vif TR-FRET	RanGTP-Imp inh	Bfl-1 A1 inh
O=C(c1ccccc1)N(NC(=O)C(O)(c1ccccc1)c1ccccc1)c1cccc(F)c1	.	.	.	.	.	-12.4	0.1	24.2%	0.3	-0.4
O=[N+]([O-])c1cccc(/C=N/Nc2nc(N3CCCCC3)nc(N3CCCCC3)n2)c1	5.5	2.4	17.1	6.9	-1.4	11.5	-9.3	-1.2%	-1.0	1.0
CCOCCCNc1nc2c(c(=O)n(C)c(=O)n2C)n1CCCc1ccccc1	.	10.9	.	.	.	-10.6	3.5	2.2%	2.1	0.7
O=C(CN1CCC(O)CC1)N1c2ccccc2C=Cc2ccccc21	.	-9.0	.	.	.	-0.7	-5.9	-0.5%	4.4	1.8
CC(C)(C)n1cnc2cc(NC(=O)c3cccs3)ccc21	-0.6	-4.3	-5.4	-5.8	-1.3	8.8	3.4	14.9%	-3.1	-2.6
O=C(c1ccc(O)cc1)c1ccc(C(=O)O)c(C(=O)O)c1	.	-4.2	.	.	.	-11.9	-2.7	21.2%	3.9	1.1
CCOc1cc(S(=O)(=O)NCCCN2CCOCC2)c(C)cc1C	1.5	-1.9	14.6	11.3	4.8	2.2	-22.7	1.6%	-4.4	-0.4
COc1ccc(CCn2c(NN=C3CCCC3)nc3c2c(=O)[nH]c(=O)n3C)cc1	1.1	7.4	-1.1	2.6	-1.9	-3.7	-0.2	?	2.1	1.3
CCOC(=O)c1c(-c2ccc(C)s2)csc1NC(=O)c1cccs1	.	8.6	.	.	.	0.6	-5.2	-12.9%	-1.0	0.1
CC(=O)Nc1ccc(N2C(C(C)=O)=NN(c3ccccc3)C2c2cccs2)cc1 (stereo unspecified)	.	-7.8	.	.	.	-11.7	-14.0	27.3%	0.4	-1.0
CC1=C[C@@H](C)[C@@H](c2ccc(C(F)(F)F)cc2)OC1=O	-10.4	.	12.4	7.0	17.4	5.9	5.9	.	11.0	-2.5
O=c1c2c(nc3c(-c4cccc5ccccc45)c[nH]n13)CCC2	.	-6.4	.	.	.	-19.8	0.3	22.0%	-0.1	0.3
Cc1ccc(N(CC(=O)NCc2ccco2)C(=O)CNS(=O)(=O)c2ccc(F)cc2)c(C)c1	0.1	-2.5	2.9	-12.2	-1.7	-2.2	13.1	.	3.2	0.2
CCOC(=O)Cn1c(=O)n(Cc2ccc(OC)cc2)c(=O)c2cccnc21	-0.6	3.4	6.1	12.2	5.7	15.8	2.0	3.1%	-3.6	0.7
CC1(C)NC(=O)N(CCCOc2ccccc2Br)C1=O	.	-17.0	.	.	.	-14.2	-2.6	-4.1%	1.9	.
O=C(Nc1nnc(-c2ccccc2)s1)c1ccccc1O	-0.5	32.8	-0.8	15.2	0.3	-6.8	-6.5	-3.1%	-1.1	-5.9
Cc1cc(C)n(CC(=O)N/N=C/c2ccc([N+](=O)[O-])s2)n1	2.0	-15.3	-56.6	-75.9	-23.2	58.7*	35.9	-1.7%	-2.7	-0.2
COc1ccc(/C(O)=C2/C(=O)C(=O)N(CC3CCCO3)C2c2ccc(O)c(OC)c2)cc1 (stereo unspecified)	-2.6	-6.3	6.4	10.4	0.0	-23.9	0.6	12.1%	?	-0.3
CCCCOc1ccccc1C1NC(=O)CCC1[N+](=O)[O-] (stereo unspecified)	-0.2	-6.6	-8.7	-5.8	-8.5	2.9	-8.3	-4.1%	-4.2	-2.6
CC(=O)Nc1ccc(NC(=O)c2ccc(COc3ccccc3Br)o2)cc1	3.0	3.4	4.0	4.8	-0.3	-8.7	-4.5	-5.6%	1.0	1.2
COc1cccc(NC(=O)Cn2c3ccc(OC)cc3c3nc4n(c(=O)c32)CCS4)c1	-15.1	14.5	5.4	8.8	-2.7	2.1	20.4	-26.8%	1.6	0.0
Cc1cc(C)c[n+](CC(=O)c2ccccc2)c1	-3.5	-2.0	12.7	4.5	-0.5	7.2	-19.9	.	1.3	-1.1
COc1ccc(-n2c(NNC(C)=O)nc3sc4c(c3c2=O)CCCC4)cc1	2.9	7.2	1.7	9.4	0.7	-0.3	1.4	4.8%	-1.6	-0.5
CCOc1ccc(-n2c(COc3ccc(C)cc3)nnc2SCC(N)=O)cc1	.	-3.0	.	.	.	4.5	?	-0.6%	-2.0	0.0
CC(C)(C)NC(=O)Nc1ccccc1C(N)=O	.	-0.7	.	.	.	-5.5	-7.7	2.7%	3.6	0.8

Next section:
SMILES	AF4-AF9 inh	Beta apoptosis	rRNA inh HTS	rRNA inh HTS OD600	rRNA inh HTS RFP	T cruzi repl	Calb FLC	Vif TR-FRET	RanGTP-Imp inh	Bfl-1 A1 inh
CC(C)N=c1cc2n(-c3ccc(Cl)cc3)c3ccccc3nc-2cc1Nc1ccc(Cl)cc1	18.9	114.0*	.	.	.	43.7	.	.	0.8	-0.4
COc1ccc(CC(=O)OCC(=O)N2N=C(c3ccccc3)CC2c2ccc(OC)cc2)cc1 (stereo unspecified)	.	-2.8	.	.	.	8.3	2.6	.	0.7	-3.1
N#Cc1cc(Sc2ccccn2)c([N+](=O)[O-])cc1C#N	-0.4	-16.0	-16.9	4.0	10.8	-8.1	-22.4	28.8%	0.3	-0.7
Cc1ccc(C)c(NC(=O)c2sc(Cl)nc2-c2ccccc2)c1	.	0.4	.	.	.	3.6	-4.1	-69.7%	?	?
CC(C)(C)OC(=O)NCc1ccc(NC(=O)c2nc[nH]c2C(=O)NCCN(CCNC(=O)c2[nH]cnc2C(=O)Nc2ccc(CNC(=O)OC(C)(C)C)cc2)CCNC(=O)c2[nH]cnc2C(=O)Nc2ccc(CNC(=O)OC(C)(C)C)cc2)cc1	4.2	-2.3	10.9	15.6	-4.5	.	.	.	.	1.8
CCN(CC)S(=O)(=O)c1ccc(C(=O)NC(C)(C)C)cc1	-4.6	-0.9	14.2	8.2	-0.5	4.1	-8.0	13.4%	1.7	-0.3
Cc1cc(C=C2C(=O)c3ccccc3C2=O)c(C)n1-c1cccc(C(=O)O)c1	2.5	1.2	2.2	7.7	-2.0	-15.0	18.2	24.6%	1.7	-6.7
O=S(=O)(Cc1cc(-c2ccc(Cl)cc2)no1)c1ccccc1	.	-4.3	.	.	.	3.1	22.5	-5.2%	1.7	-0.1
CN1/C(=C/C=C(C#N)C#N)C(C)(C)c2ccccc21	-2.2	1.0	31.8	4.9	39.3	5.5	-3.4	-8.2%	1.7	-0.6
Cc1cc(C)nc(SCc2ccc(C(=O)N/N=C/c3ccc(C(=O)O)cc3)cc2)n1	-6.9	-15.8	-7.9	-11.6	-3.1	-10.8	13.7	0.7%	-1.4	0.7
COc1ccc(C2C(C(=O)c3ccc(C)o3)=C(O)C(=O)N2CC2CCCO2)cc1OC (stereo unspecified)	-1.4	-4.1	0.5	11.9	1.1	-17.6	-2.2	2.1%	2.8	?
Oc1cccc2c(NC(=S)Nc3ccc(SC(F)F)cc3)cccc12	8.9	-2.9	-41.5*	-27.2*	-0.5*	-3.0	18.5	?	-12.4	-1.6
COc1ccc(CCNC(=O)c2cccc3ccccc23)cc1OC	-5.0	.	4.5	3.2	3.7	-0.4	39.8	.	2.9	1.4
COc1ccc(C(=O)C2CCCN(C(=O)c3cccnc3OC)C2)cc1F (stereo unspecified)	-6.6	-6.3	2.7	-4.1	-2.3	-5.2	0.7	-7.5%	-2.0	0.2
Cc1cc(NS(=O)(=O)c2ccc(NC(=O)Cc3cccs3)cc2)no1	-16.5	-1.5	-1.7	-2.5	-8.9	-9.9	0.1	-3.1%	0.7	-1.8
CCOc1cc(/C=N/NC(=O)CN2CCCCC2)ccc1O	2.3	-2.9	0.4	0.0	-1.6	-14.4	-7.4	-3.9%	0.7	0.1
COc1ccc(Nc2cc(C)nc3ncnn23)cc1Cl	-3.4	-3.6	6.6	-2.4	3.5	-1.9	25.8	.	2.7	-1.5
CS(=O)(=O)N1CCc2cc(NC(=O)c3ccc(Cl)cc3Cl)ccc21	-1.6	8.6	-23.7*	-17.9*	-8.2*	-4.6	-6.1	.	-0.9	0.0
Cc1noc(C)c1C(=O)NCc1ccco1	.	-8.1	.	.	.	.	0.1	-2.9%	1.0	0.2
O=C(COC(=O)C1CC(=O)N(Cc2ccccc2)C1)Nc1cccc([N+](=O)[O-])c1 (stereo unspecified)	7.1	-1.3	-4.9	-3.5	-2.8	.	.	.	.	0.0
COc1ccc([C@@H]2CC(=O)c3c(O)cc(O[C@@H]4O[C@H](CO[C@@H]5O[C@@H](C)[C@H](O)[C@@H](O)[C@H]5O)[C@@H](O)[C@H](O)[C@H]4O)cc3O2)cc1O	0.0	-1.9	.	.	.	-16.7	-1.6	.	-0.2	-0.1
CC(C)C(=O)NCCc1nc(-c2ccc(Cl)cc2)no1	-2.2	-9.0	1.3	2.4	-1.3	-2.0	-1.0	.	-0.2	0.0
CCCCn1c(-c2csc3ccccc23)n[nH]c1=S	.	4.0	.	.	.	13.3	30.1	-0.4%	.	0.0
Cc1sc2ncnc(N3CCC(C(=O)Nc4nnc(CC(C)C)s4)CC3)c2c1C	-3.1	-3.2	8.8	6.1	0.4	22.2	-0.6	-16.4%	-1.1	-0.6
O=C(Nc1nnc(COc2ccccc2F)s1)Nc1ccccc1F	-2.4	-0.1	.	.	.	16.6	-3.0	-0.3%	2.4	-0.1
O=C(c1cc(O)c(O)c([N+](=O)[O-])c1)c1ccccc1F	25.7*	-3.9	-43.0	-72.8	-17.6	.	.	.	.	-1.3
Cn1cccc1C(=O)OCc1cc(Cl)cc2c1OCOC2	.	4.3	.	.	.	2.0	?	-3.1%	5.3	-3.2
C=CCN1CC(C)/C(=N\O)CC1C (stereo unspecified)	1.6	7.8	6.6	4.1	-0.5	-10.7	4.9	5.2%	4.3	-0.4
CCOc1ncccc1C(=O)N1CCN(S(=O)(=O)c2ccc3ccccc3c2)CC1	8.5	3.0	-12.1	-12.8	-4.8	3.4	2.8	.	-6.1	0.7

These rows are one share of the data, so the mix of outcomes need not match the whole.
